TRPML1 blocker: inhibitors of human TRPML1 channel | Q9GZU1 | TRPML1-inducible cells, Ca2+ dye fluorescence, FDSS; stronger effect = lower value; inhibition of EC80 agonist-evoked calcium signal | activity change, negative = inhibition, % (concentration not given with the values) | actives 0.02% (n = 390,000) | AID 624415; in the data active means activity change below about -50%; inconclusive means about -30% to -50%; inactive means above about -30%;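 note: stimulus is agonist 54-4 at its EC80 concentration; % is set by controls: 0 for no effect and ±100 for the full control effect; compound concentration not given in the record; the text of the record puts the active cut at -80%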
Target sequence (Q9GZU1 whole entry, looked up): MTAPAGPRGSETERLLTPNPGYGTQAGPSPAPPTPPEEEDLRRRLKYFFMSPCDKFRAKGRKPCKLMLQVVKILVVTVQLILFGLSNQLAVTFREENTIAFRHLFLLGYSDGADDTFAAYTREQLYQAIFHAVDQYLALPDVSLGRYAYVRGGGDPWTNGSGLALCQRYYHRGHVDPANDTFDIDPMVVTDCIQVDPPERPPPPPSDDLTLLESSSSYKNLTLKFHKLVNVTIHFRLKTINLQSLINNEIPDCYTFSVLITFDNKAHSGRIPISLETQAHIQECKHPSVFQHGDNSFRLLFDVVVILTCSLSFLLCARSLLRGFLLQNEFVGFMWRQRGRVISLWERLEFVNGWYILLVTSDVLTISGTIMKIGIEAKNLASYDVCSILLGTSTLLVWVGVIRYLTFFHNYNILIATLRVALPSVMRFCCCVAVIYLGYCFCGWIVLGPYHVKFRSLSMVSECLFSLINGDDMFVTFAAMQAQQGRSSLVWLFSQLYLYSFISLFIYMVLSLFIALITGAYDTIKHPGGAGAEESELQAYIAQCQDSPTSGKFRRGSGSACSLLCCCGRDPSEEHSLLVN
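Tet-induced TRPML1-DL cells loaded with Ca8 no-wash calcium dye were read kinetically on FDSS. Compound addition was followed by EC80 agonist 54-4 (4 uM final); inhibition was read over 110 s.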
Six1-Eya2 blk: blocks human Six1 binding to Eya2; Q15475+O00167; AlphaScreen GST-Six1/His-Eya2 binding, biochemical; stronger effect = lower value; control for the full effect not named in the record; activity change, % (test concentration not listed); actives 0.56% (n = 360,000); AID 651725; in the data active = activity change below about -65%; inconclusive = about -30% to -65%; inactive = above about -30%; note: % is set by controls: 0 for no effect and ±100 for the full control effect; compound concentration not given in the record
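Homogeneous AlphaScreen proximity assay pairing GST-Six1 with His-tagged Eya2 (added as 5X mix: 250 nM and 500 nM) in 50 mM Tris pH 8.0, 300 mM NaCl, 1 mM TCEP. Glutathione donor and nickel acceptor beads; 1 h, 37 °C, dark.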
PINK1 modulator: modulators of PINK1 expression. AID 624263. Potency, µM (highest dose often 76.6 µM), inactives show at the top dose activation (PINK1 increase), actives largely listed as activators. actives 0.2% (n = 410,000). PINK1 immunofluorescence, high-content cytometry, 24 h; active = well fitted activation curve with a large enough effect; inconclusive = small, poorly fitted or top-dose-only effect; inactive = flat fitted curve, though single readings scatter; cell line not stated here;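 note: potency is the fitted concentration of half-maximal effect; % of control where 0% means no effect; nearly all actives have a fitted effect of over 65% in size; a mitochondrial uncoupler was the plate control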
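PINK1 protein level read as immunofluorescence by microplate cytometer in a fixed, stained stable cell line after 24 h exposure to five compound concentrations, with CCCP as control.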
CtBP-E1A blk: blocks the CtBP interaction with E1A | activity change, % (concentration not given with the values) | AlphaScreen GST-E1A/His-CtBP binding, 1536-well; stronger effect = lower value; control for the full effect not named in the record | actives 0.49% (n = 340,000); in the data active means activity change below about -65%; inconclusive means about -30% to -65%; inactive means above about -30%; note: % is set by controls: 0 for no effect and ±100 for the full control effect
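GST-E1A and His-tagged CtBP (125 nM each as 5X stock) were preincubated with pin-transferred compound for 2 h at 37 °C in the dark, then glutathione donor and nickel acceptor beads were added for 1 h before AlphaScreen reading.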
TRPML1 ag: activates the human TRPML1 channel | actives 0.12% (n = 410,000) | TRPML1-expressing cells, Ca2+ dye fluorescence, FDSS; host cell line not named in the record; reference of the full effect not given here | activation, % (concentration not given with the values); in the data active = activation above about 50%; inconclusive = about 30% to 50%; inactive = below about 30%; note: 0% is about no effect; the text of the record puts the active cut at 80%
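Kinetic FDSS Ca2+ read in Tet-induced TRPML1-DL cells (ABD Ca8 dye plus quencher, 45-90 min RT loading): baseline, then compound, then 110 s agonist window; EC80 agonist 54-4 at 4uM final added afterwards for a 110 s antagonist window.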
D2 agonist: activates the human D2 dopamine receptor. activation, % (test concentration not listed). DiscoveRx PathHunter D2 beta-arrestin, luminescence, 90 min; 100% = 57 uM dopamine signal. actives 0.084% (n = 360,000); in the data active = activation above about 40%; inconclusive = about 15% to 40%; inactive = below about 15%; note: compound concentration not given in the record; the text of the record calls up to 30% inactive
Target sequence (P14416 whole entry, looked up): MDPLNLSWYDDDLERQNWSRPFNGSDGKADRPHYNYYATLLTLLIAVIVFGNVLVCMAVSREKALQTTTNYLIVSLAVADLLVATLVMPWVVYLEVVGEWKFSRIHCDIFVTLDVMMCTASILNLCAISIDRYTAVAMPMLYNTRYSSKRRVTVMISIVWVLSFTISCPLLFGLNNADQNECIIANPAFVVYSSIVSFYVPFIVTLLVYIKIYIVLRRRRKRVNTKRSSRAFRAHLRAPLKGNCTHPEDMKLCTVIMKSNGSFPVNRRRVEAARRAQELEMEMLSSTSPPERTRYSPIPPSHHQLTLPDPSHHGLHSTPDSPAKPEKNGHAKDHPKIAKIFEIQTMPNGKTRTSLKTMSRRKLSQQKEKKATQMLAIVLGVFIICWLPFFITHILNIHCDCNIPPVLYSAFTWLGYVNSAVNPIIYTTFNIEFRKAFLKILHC
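Agonist mode: compounds alone added to overnight-plated D2 PathHunter cells for 90 min at 37 C, with 57 uM final dopamine (EC100) defining full response. Beta-arrestin recruitment detected by chemiluminescent reagent, read after 1 h at ambient temperature.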
* marks the source's active call; other numbers are inactive results; [ ] = another dose, or the depositor's remark.

For O=C(Nc1ccc(OCc2ccccc2)cc1)Nc1ccccc1C(=O)NCCCN1CCOCC1 the results were TRPML1 blocker 16, Six1-Eya2 blk -19, PINK1 modulator 1.2%, CtBP-E1A blk -6, TRPML1 ag -0.9 and D2 agonist -5.1.
O=C1/C(=C/c2ccc(F)cc2)SC(=S)N1Nc1ncc(C(F)(F)F)cc1Cl was read as TRPML1 blocker 30, Six1-Eya2 blk -14, PINK1 modulator 3.2%, CtBP-E1A blk inconclusive, TRPML1 ag 0.5 and D2 agonist -2.4.
`COc1cccc(N2C(=O)CC(Sc3nc(C)cc(C)n3)C2=O)c1` (stereo not given) gave TRPML1 blocker 1, Six1-Eya2 blk -13, PINK1 modulator -0.1%, CtBP-E1A blk 1, TRPML1 ag 0.3 and D2 agonist -0.3.
`CCOc1ccc(NS(=O)(=O)c2ccc(C(=O)NCC(c3ccccc3OC)N3CCCC3)cc2)cc1` (stereo not given) gave TRPML1 blocker 3, Six1-Eya2 blk -2, PINK1 modulator -3.6%, CtBP-E1A blk 0, TRPML1 ag 4.7 and D2 agonist -0.4.
Screening CCCCCC1CC1C(=O)N/N=C/c1ccc(N(C)C)cc1 (stereo not given) returned TRPML1 blocker 29, Six1-Eya2 blk -18, PINK1 modulator -2.3%, CtBP-E1A blk -18, TRPML1 ag 1.4 and D2 agonist -1.5.
Screening CC(C)c1ccc(NCCC(=O)c2cccs2)cc1 returned TRPML1 blocker -22, Six1-Eya2 blk -28, PINK1 modulator -1.9%, CtBP-E1A blk -20, TRPML1 ag 0.2 and D2 agonist 0.7.
`Cc1nc([N+](=O)[O-])c(C(=O)OCc2ccc(C#N)cc2)n1C` gave TRPML1 blocker 5, Six1-Eya2 blk 4, PINK1 modulator 3.1%, CtBP-E1A blk -9, TRPML1 ag -1.2 and D2 agonist -4.4.
`O=S(=O)(c1ccccc1)N1CCN=C1SCc1cccnc1` gave TRPML1 blocker -7, Six1-Eya2 blk 2, PINK1 modulator 0.8%, TRPML1 ag 0.7 and D2 agonist 0.7.
Screening CCN(C(=O)COC(=O)C1CCN(S(=O)(=O)c2ccc3c(c2)OCCO3)CC1)C1CCS(=O)(=O)C1 (stereo not given) returned TRPML1 blocker -8, Six1-Eya2 blk 4, PINK1 modulator -3.7%, CtBP-E1A blk -9, TRPML1 ag 0.2 and D2 agonist 1.0.
`COc1cc(OC)c(OC)cc1CN1CCN(c2ccc(F)cc2)CC1` gave TRPML1 blocker -7, Six1-Eya2 blk -25, PINK1 modulator 0.3%, CtBP-E1A blk -11, TRPML1 ag -0.6 and D2 agonist -3.3.
Screening COC(=O)C1CSC(C)(C)C(=O)N1 (stereo not given) returned TRPML1 blocker -10, Six1-Eya2 blk 3, PINK1 modulator 1.3%, CtBP-E1A blk 11, TRPML1 ag -0.1 and D2 agonist -2.4.
Screening O=C(CCn1c(=O)oc2ccccc21)NCCCN1CCN(c2ccc(F)cc2)CC1 returned TRPML1 blocker -4, Six1-Eya2 blk -1, CtBP-E1A blk 0, TRPML1 ag -0.6 and D2 agonist 1.8.
COc1ccc(CCNc2ncnc3c2oc2ccccc23)cc1OC was read as TRPML1 blocker 3, Six1-Eya2 blk -15, CtBP-E1A blk 8, TRPML1 ag 1.5 and D2 agonist 2.9.
Screening O=S1(=O)CCN(C(CCO)c2cccc(C(F)(F)F)c2)CC1 (stereo not given) returned TRPML1 blocker 20, Six1-Eya2 blk 9, PINK1 modulator 1.7%, CtBP-E1A blk -1, TRPML1 ag 0.4 and D2 agonist -1.3.
For COc1ccccc1NC(=O)c1nnn(-c2ccc(F)cc2)c1C the results were TRPML1 blocker 2, PINK1 modulator 1.0% and TRPML1 ag -0.2.
For CCCCn1c(=O)[nH]c(=O)c2c1nc(-c1ccc(C(F)(F)F)cc1)n2C the results were TRPML1 blocker 7, Six1-Eya2 blk -4, PINK1 modulator 3.1%, CtBP-E1A blk 3, TRPML1 ag -0.8 and D2 agonist -0.6.
Screening N#Cc1ccc2[nH]cc(C3c4cc(F)ccc4C=C(c4ccsc4)N3c3ccc(C#CCCO)cc3)c2c1 (stereo not given) returned Six1-Eya2 blk 6, PINK1 modulator 5.5%, CtBP-E1A blk -9 and TRPML1 ag 0.1.
COc1ccccc1CNc1nc(Nc2ccccc2OC)c2sccc2n1 was read as TRPML1 blocker 2, Six1-Eya2 blk -4, PINK1 modulator 5.1%, CtBP-E1A blk 0, TRPML1 ag -0.3 and D2 agonist 2.3.
C[N+](C)(C)CCNC(=O)c1ccccc1 was read as Six1-Eya2 blk 5, PINK1 modulator 0.6%, CtBP-E1A blk 0 and TRPML1 ag -0.1.
Screening O=C(NCc1ccccc1F)c1cccs1 returned TRPML1 blocker 29, Six1-Eya2 blk 7, PINK1 modulator 2.2%[38.3 µM], CtBP-E1A blk 13, TRPML1 ag 0.6 and D2 agonist 1.1.

Ordered by number of heavy atoms (smallest number first): three of the compounds above
Screening O=S1(=O)CCN(C(CCO)c2cccc(C(F)(F)F)c2)CC1 (stereo not given) returned TRPML1 blocker 20, Six1-Eya2 blk 9, PINK1 modulator 1.7%, CtBP-E1A blk -1, TRPML1 ag 0.4 and D2 agonist -1.3.
For COc1ccccc1NC(=O)c1nnn(-c2ccc(F)cc2)c1C the results were TRPML1 blocker 2, PINK1 modulator 1.0% and TRPML1 ag -0.2.
For O=C(Nc1ccc(OCc2ccccc2)cc1)Nc1ccccc1C(=O)NCCCN1CCOCC1 the results were TRPML1 blocker 16, Six1-Eya2 blk -19, PINK1 modulator 1.2%, CtBP-E1A blk -6, TRPML1 ag -0.9 and D2 agonist -5.1.

Further records:
CC(Sc1nc2ccccc2[nH]1)C(=O)Nc1ccccc1F (stereo not given) was read as TRPML1 blocker 27, Six1-Eya2 blk 1, PINK1 modulator 2.5%, CtBP-E1A blk -3, TRPML1 ag -0.7 and D2 agonist 2.5.
`COc1ccc(-c2nc3c4ccccc4ccn3c2C=O)cc1` gave TRPML1 blocker 10, Six1-Eya2 blk 7, PINK1 modulator 12%, CtBP-E1A blk 4, TRPML1 ag -0.5 and D2 agonist -1.7.
For Cc1nnc(SCC(=O)Nc2ccc3c(c2)COC3=O)n1-c1ccccc1 the results were TRPML1 blocker -2, Six1-Eya2 blk -5, PINK1 modulator 1.2%, CtBP-E1A blk 3, TRPML1 ag 0.9 and D2 agonist 1.4.
`COc1ccc(-n2nc3ccc(NC(=O)c4cccc(OCCC(C)C)c4)cc3n2)cc1` gave TRPML1 blocker 4, PINK1 modulator 3.5% and TRPML1 ag 0.1.
CC(=O)OCC1=C(C(=O)O)N2C(=O)C(NC(=O)CCn3nc(C(F)(F)F)c(Br)c3C3CC3)C2SC1 (stereo not given) was read as TRPML1 blocker 32, Six1-Eya2 blk 1, PINK1 modulator -0.5%, CtBP-E1A blk 8, TRPML1 ag 0.0 and D2 agonist -1.4.
`Cc1cccc(-c2nsc(SCC(=O)NCc3ccc4c(c3)OCO4)n2)c1` gave TRPML1 blocker 0, Six1-Eya2 blk -7, PINK1 modulator 9.0%, CtBP-E1A blk 0, TRPML1 ag 1.9 and D2 agonist -4.8.
`CC1CCCCC1NC(=O)c1cc(=O)[nH]c2ccccc12` (stereo not given) gave TRPML1 blocker 13, Six1-Eya2 blk 8, PINK1 modulator -0.1%, CtBP-E1A blk -1, TRPML1 ag 0.9 and D2 agonist -1.0.
`CCc1ccc(OCC(=O)N/N=C/c2cc([N+](=O)[O-])ccc2N2CCOCC2)cc1` gave TRPML1 blocker -3, Six1-Eya2 blk -20, PINK1 modulator -3.4%, CtBP-E1A blk -9, TRPML1 ag -0.1 and D2 agonist -3.2.
Screening COC(=O)c1ccc(CO/N=C/c2cccc([N+](=O)[O-])c2)cc1 returned TRPML1 blocker 1, Six1-Eya2 blk 1, PINK1 modulator 4.4%, CtBP-E1A blk 8, TRPML1 ag -0.5 and D2 agonist -3.6.
`CC(C(=O)Nc1ccc(Cl)cc1)N1C(=O)NC2(CCCC2)C1=O` (stereo not given) gave TRPML1 blocker -5, Six1-Eya2 blk 12, PINK1 modulator -2.7%, CtBP-E1A blk 6, TRPML1 ag 2.1 and D2 agonist -1.9.
For O=C(Nc1sc2c(c1C(=O)NCCO)CCCC2)c1ccco1 the results were TRPML1 blocker 13, Six1-Eya2 blk -5, PINK1 modulator 2.9%, CtBP-E1A blk -3, TRPML1 ag -0.9 and D2 agonist 1.6.
CC1=C(C(=O)OC(C)C)C(c2cccs2)NC(=O)N1 (stereo not given) was read as TRPML1 blocker 20, Six1-Eya2 blk 4, PINK1 modulator -0.1%, CtBP-E1A blk -1, TRPML1 ag -0.2 and D2 agonist 0.3.
For Cc1ccc(NC(=O)N2CCC(O)(c3ccc(Cl)cc3)CC2)cc1 the results were TRPML1 blocker 6, Six1-Eya2 blk 0, PINK1 modulator -0.8%, CtBP-E1A blk 5, TRPML1 ag 1.5 and D2 agonist -0.5.
`O=C(CNS(=O)(=O)c1ccc(Cl)c(C(F)(F)F)c1)NC1CCCCC1` gave TRPML1 blocker -5, Six1-Eya2 blk 8, PINK1 modulator -0.7%, CtBP-E1A blk -1, TRPML1 ag -0.1 and D2 agonist -5.1.
For Cc1cn2c(=O)c(C(=O)NCc3ccc4c(c3)OCO4)cnc2s1 the results were TRPML1 blocker -10, Six1-Eya2 blk 2, PINK1 modulator 0.0%, CtBP-E1A blk 3, TRPML1 ag 0.5 and D2 agonist -4.2.
`COc1ccc(N2CCN(C(=O)c3ccc(N4C(=O)NC5CC4(C)Oc4ccccc45)cc3)CC2)cc1` (stereo not given) gave TRPML1 blocker 13, Six1-Eya2 blk -14, PINK1 modulator 0.1%, CtBP-E1A blk -1, TRPML1 ag 0.2 and D2 agonist -3.3.
Screening O=C(Cn1nnc2ccccc2c1=O)Nc1ccc2c(c1)CCC2 returned TRPML1 blocker -3, Six1-Eya2 blk -7, CtBP-E1A blk -8, TRPML1 ag -0.4 and D2 agonist -1.2.
O=C(NNS(=O)(=O)c1ccc(F)cc1)c1ccc2c(c1)OCO2 was read as TRPML1 blocker -2, Six1-Eya2 blk -10, PINK1 modulator 0.7%, CtBP-E1A blk 1, TRPML1 ag 0.1 and D2 agonist -11.
`OC1(c2ccc(Cl)c(Cl)c2)C[n+]2ccccc2N1Cc1ccccc1` (stereo not given) gave TRPML1 blocker -8, Six1-Eya2 blk 37, PINK1 modulator -3.8%, CtBP-E1A blk -3, TRPML1 ag -0.8 and D2 agonist -5.0.
Screening C=CCC[C@H](CCCCC)OC(=O)/C=C/[C@@H](O)[C@H](O)C[C@@H](O)CC=C returned Six1-Eya2 blk 1, PINK1 modulator 5.9%, CtBP-E1A blk 5 and TRPML1 ag -0.6.
CCOC(=O)C1(CCc2ccccc2)CCN(C(=O)C(C)n2cncn2)CC1 (stereo not given) was read as TRPML1 blocker -7, Six1-Eya2 blk -4, PINK1 modulator -1.0%, CtBP-E1A blk 9, TRPML1 ag 0.0 and D2 agonist -0.9.
